Compound activity deposited in PubChem by several laboratories.
PrP UTR inh = inhibition of PrP 5' UTR reporter expression. cell-based PrP 5' UTR mRNA reporter, plate reader. inhibition, % (concentration not given with the values). hit rate 0.35% among 340,000. AID 488862, 2010;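 active means every replicate at 50% or more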;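 further: 0 = median of the neutral control wells; tested in H4 reporter cells; numbers are from one replicate; inactives centre near -14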
Mtb hypoxia rep = PubChem AID 1159583; M. tuberculosis hypoxia-regulated fluorescent reporter, fluorescence; fluorescence inhibition, % (no concentration beside the values); hit rate 0.1% among 300,000;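 active means 35 to 45% if threefold the growth effect, above 45% if 1.5-fold the growth effect; inactive means the rest, general growth blockers included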;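 further: wells of about 50 µL received 100 nL stock; 0% = vehicle wells and 100% = reference inhibitor wells; whole bacteria with a GFP reporter of the hypoxia response; strong numbers were not always called active; many hits fall short of the cut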
Autofluor counter = compound fluorescence in toxin protease inhibitor counterscreen | compound autofluorescence counterscreen, microsphere flow cytometry; hits give high values | fluorescence intensity (test concentration not listed) | hit rate 3.1% among 360,000;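 active means at least 3 SD above the mean of all compounds, about 16000 in these data; inconclusive means too few beads counted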;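 further: 100 nL of 1 mM stock went into each well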
BJeLR viability = MLPCN primary cell-based screen for lethality selective to Ras in HRASV12 cells. inhibition, % (no concentration beside the values). hit rate 0.17% among 300,000. BJeLR (HRASV12) viability, CellTiter-Glo ATP luminescence, 48 h; reference of the scale not given here;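 active means replicate mean above 50%; inconclusive means above 50% but judged a plate artefact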;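 further: 50 nL library stock added to about 25 µL; numbers are from one replicate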
ugtP null kill = growth inhibition of ugtP-null S. aureus, primary screen, RN4220 ugtP deletion, OD600; AID 1259309, 2017; 16 h; some inactives read as strong as hits; hit rate 0.54% among 330,000; growth inhibition, % (no concentration beside the values);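 active means z-score under -3 and OD600 up to 0.15 on both plates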;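 further: plate controls were untreated wells for no effect and antibiotic for full effect; wells of about 80 µL received 100 nL stock; the first replicate is given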
RN4220 kill = growth inhibition of S. aureus RN4220, primary screen, OD600 | 16 h | inhibition, % (test concentration not listed) | hit rate 0.33% among 330,000;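 active means z-score of -3 or lower and OD600 up to 0.18 on both plates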;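 further: plate controls were untreated cells for no effect and reference antibiotic for full effect; stock transfer was 100 nL into about 80 µL; one replicate is shown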
Mtb hypoxia rep growth = further read-out of Mtb hypoxia rep, marked with its call; growth inhibition, %; measured here: M. tuberculosis growth (absorbance);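 0% = vehicle and 100% = reference antibiotic; read after six days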
Starred values were filed as active, the others as inactive; ? = inconclusive; . = not tested or not shown.

SMILES	PrP UTR inh	Mtb hypoxia rep	Mtb hypoxia rep growth	Autofluor counter	BJeLR viability	ugtP null kill	RN4220 kill
Cc1ccc(S(=O)(=O)c2cc3ccccc3oc2=Nc2ccc3c(c2)OCCO3)cc1	0	13	6	2076	-8	19	4.7
COc1ccc(CCNC(=O)CCn2c(=O)c3ccccc3n(CC(=O)NCC3CCCO3)c2=O)cc1OC (stereo not given)	-12	7	16	6223	7	7	3.1
CCOC(=O)Cc1csc(NC(=O)c2ccc(S(=O)(=O)N3CCCCC3)cc2)n1	-26	-1	-3	22414*	-4	6	1.7
Clc1ccc(/C=N/Nc2nnc(Cl)c3ccccc23)cc1	-89	.	.	10256	7	.	.
COc1ccc(C2C=C(C)Nc3nc(SC)nn32)cc1 (stereo not given)	-9	3	8	2497	-11	-8	-17
COc1cc(C(C)=O)ccc1OCC(O)CN1CCN(c2ccc(C)cc2C)CC1 (stereo not given)	-14	-3	8	3795	13	10	-2.8
O=c1c2ccccc2oc2nc(-c3ccco3)n(Cc3ccccc3)c(=O)c12	1	-4	3	3230	-3	-15	1.3
O=C(COC(=O)c1cccnc1Nc1cccc(C(F)(F)F)c1)NC1CCS(=O)(=O)C1 (stereo not given)	-14	8	8	1960	2	-3	4.7
COc1ccc(CN2CCC(CO)(CCOc3ccccc3)CC2)c(OC)c1C	-27	12	1	2693	13	0	4.5
CCOC(=O)Cc1c(C)[nH]n(-c2ccccc2)c1=O	.	10	0	.	9	2	4.2
CCOC(=O)COc1nc(OC)nc(N2CCOCC2)n1	-19	16	7	9977	5	-9	3.7
Cc1cccn2c(=O)c3cc(C(=O)NCCN4CCOCC4)c(=N)n(Cc4cccnc4)c3nc12	16	8	2	?	0	10	2.2
CCC(=O)N1CCc2cc(S(=O)(=O)CCC(=O)Nc3ccc(OC)c(OC)c3)ccc21	-26	-6	-4	2175	-1	-4	2.1
O=C(NCCS(=O)(=O)N1CCN(c2ccccc2F)CC1)c1cc(=O)c2ccccc2o1	-16	7	6	5585	0	1	2.5
O=C(CCCN1C(=O)/C(=C/c2ccc(F)cc2)SC1=S)NCCCn1ccnc1	-3	6	-1	5940	7	7	4.4
COc1ccc(-c2csc(NC(CO)c3nc4ccccc4n3CCOCCO)n2)cc1 (stereo not given)	-7	1	11	2748	-10	-7	3.0
CSc1ncccc1C(=O)Nc1ccccc1N1CCOCC1	-5	14	14	9178	.	5	6.3
CC(=O)N(CN1C(=O)C2C3C=CC(C3)C2C1=O)c1cccc(Cl)c1 (stereo not given)	-6	7	4	4184	0	10	1.9
COc1ccc(OC)c2c1C(=O)c1ccccc1C2=O	.	2	17	.	-8	16	1.3
COc1ccc(C(=O)N2CCCC(CO)(Cc3ccccc3C)C2)o1 (stereo not given)	4	2	7	6319	-2	-6	4.4
CCOc1ccc(/C=N/NC(=O)C(OC)c2ccccc2)cc1 (stereo not given)	-53	.	.	4704	-5	.	.
O=c1[nH]c(C(F)(F)C(F)(F)C(F)(F)F)no1	-35	5	6	3480	.	0	2.0
O=C(CN1C(=O)NC2(CCCC2)C1=O)N1CCN(S(=O)(=O)c2ccccc2Br)CC1	3	5	-2	5276	4	2	3.5
Cc1ccc2nc(NC(=O)Cn3cc4c(n3)CCCCC4)sc2c1	-3	4	3	5963	8	11	-2.7
CC(=O)Nc1ccc(C(=O)OCc2ccc(F)cc2Cl)cc1	-13	-4	-8	3376	2	-5	3.4
C[C@]12CCC(=O)CC1CCC1C2CC[C@]2(C)C(OC(=O)CCC(=O)O)CCC12 (stereo not given in full)	-23	14	10	3929	8	17	7.1
O=C(Cn1cnc2ccccc21)N/N=C/c1cccnc1	-11	.	.	4391	10	.	.
COc1ccccc1CCc1nnc(CCC(=O)NC(C)Cn2nc(C)cc2C)o1 (stereo not given)	-10	11	5	2549	3	4	4.0
O=C(NCC1CCCO1)c1cccc2c1C(=O)c1ccc(-c3ccc(F)cc3OCc3ccccc3)cc1S2(=O)=O (stereo not given)	.	5	11	.	.	-8	0.6
CCOCCCNC(=O)C(c1ccc(C)cc1)N(Cc1ccc2c(c1)OCO2)C(=O)c1cnccn1 (stereo not given)	-10	.	.	.	-2	8	-0.4
Cc1ccccc1Oc1nc2c(C)cccn2c(=O)c1/C=C(\C#N)C(=O)NC1CCS(=O)(=O)C1 (stereo not given)	-14	14	14	2946	9	1	1.9
CC(C)CN(C(=O)c1ccc2c(c1)OCO2)C1CCS(=O)(=O)C1 (stereo not given)	-23	2	-1	5984	13	1	2.9
CCOC(=O)C(CC)Sc1nnc2n1C(C)(C)Cc1ccccc1-2 (stereo not given)	-27	9	3	8797	-9	-3	4.4
O=c1c(Cc2ccc(F)cc2)c(O)ccn1CCCn1ccnc1	-4	3	0	4790	-7	1	1.2
COc1ccc2nc(NC(=O)CNS(=O)(=O)c3cccs3)sc2c1	-23	1	7	6160	8	17	1.7
CCOc1ccccc1NC(=O)c1nnn(-c2ccc3c(c2)OCCO3)c1N	-5	2	13	4112	0	-4	-4.7
CC(C)C(OC(=O)c1ccco1)C(=O)NCc1cccs1 (stereo not given)	-12	-4	-5	9498	-9	-4	-0.5
O=c1[nH]c2ccc(NCc3ccc(OCc4ccccc4Cl)cc3)cc2[nH]1	-21	6	-5	4089	1	0	0.3
N#Cc1c(-c2ccc(Cl)cc2)c2c([nH]c1=O)-c1ccccc1OC2	-24	-10	-2	4219	1	1	9.9
Cc1ccc2c(c1)N(S(=O)(=O)c1cc(-c3onc(C)c3C)ccc1C)CCO2	-6	-4	-3	4732	-3	5	0.4

Copied from the entries so far (two entries):
SMILES	PrP UTR inh	Mtb hypoxia rep	Mtb hypoxia rep growth	Autofluor counter	BJeLR viability	ugtP null kill	RN4220 kill
N#Cc1c(-c2ccc(Cl)cc2)c2c([nH]c1=O)-c1ccccc1OC2	-24	-10	-2	4219	1	1	9.9
Cc1ccc2c(c1)N(S(=O)(=O)c1cc(-c3onc(C)c3C)ccc1C)CCO2	-6	-4	-3	4732	-3	5	0.4

Following part
SMILES	PrP UTR inh	Mtb hypoxia rep	Mtb hypoxia rep growth	Autofluor counter	BJeLR viability	ugtP null kill	RN4220 kill
Cc1nnc(SCC(=O)c2c(N)n(C3CC3)c(=O)[nH]c2=O)n1C	-6	-5	11	3774	.	-1	0.3
O=S(=O)(NCc1ccco1)c1ccc(Cl)cc1Cl	-3	6	-4	5730	-6	0	4.6
Cc1ccc(S(=O)(=O)Nc2ccc3c(c2)C(=O)N(C(C)CO)CC(C)C(CN(C)Cc2ccc(-c4ccccc4)cc2)O3)cc1 (stereo not given)	.	2	2	.	.	-16	1.5
CCOC(=O)c1cc(S(=O)(=O)NC2CCC(C)CC2)cn1C (stereo not given)	-14	10	8	5488	-2	1	2.5
Cc1ccc(C)c(N2CCN(C(=O)CCC(=O)Nc3nnc(CC(C)C)s3)CC2)c1	-2	-7	3	4752	4	8	4.8
FC(F)(F)c1cccc(C2NCc3ccccc3-n3cccc32)c1 (stereo not given)	-21	4	2	2839	-3	17	3.2
Cc1cc(NC(=O)CSc2nc3ccccc3c(=O)n2CCCC(=O)NCc2ccccc2)n[nH]1	2	-3	2	16651*	-2	1	-0.9
Cc1ccc(OCC(=O)N(Cc2cccc(Cl)c2)C2CCS(=O)(=O)C2)cc1C (stereo not given)	-13	-6	-10	4874	-1	-4	-0.4
CC(C)n1cc(CN2CCC(C(=O)Nc3cccc(-c4cscn4)c3)CC2)cn1	-31	3	0	4455	-3	16	4.4
CCCC(=O)N(CCc1ccccc1)Cc1nc2ccccc2c(=O)[nH]1	-3	.	.	4094	-7	2	0.7
CCn1c(C=Cc2ccccc2)nc2ccccc2c1=O	.	10	5	.	.	-25	11
CCN(CC(=O)NCc1ccc(F)cc1)C(=O)/C=C/c1ccc(OC)c(S(=O)(=O)NC(C)C)c1	-22	0	-3	3394	28	6	3.3
O=C(COC(=O)c1ccccc1C(=O)N1CCN(c2ccccc2)CC1)Nc1ccccc1	0	10	4	4349	-15	1	9.0
COc1ccc(C(=O)NC(CC(=O)O)c2cc([N+](=O)[O-])ccc2Cl)c(SC)c1 (stereo not given)	-12	3	14	3844	0	-5	-1.9
COc1cc(OC)c(NC(=O)Cn2cnc3sc(C)c(S(=O)(=O)N4CCOCC4)c3c2=O)cc1Cl	1	-1	-3	3843	-5	1	-0.4
C=CCNc1nc(N(c2ccccc2)c2ccccc2)nc(-n2ccnc2)n1	-13	12	4	20613*	-7	-3	2.1
Cc1ccc(C(=O)NCC(=O)OCC(=O)Nc2ccccc2[N+](=O)[O-])cc1	-9	-5	5	2632	3	8	11
CCc1nc2cccnc2n1-c1ccc(CC(=O)O)cc1	-30	17	8	3811	13	7	1.6
CC(=O)NCCOc1cccc2ccccc12	-21	9	9	10859	-9	5	9.2
COc1cc(N)c2ncccc2c1Br	-12	6	5	3029	.	6	4.1

Gathered by group, those above with a thiophene ring, fused or not.
SMILES	PrP UTR inh	Mtb hypoxia rep	Mtb hypoxia rep growth	Autofluor counter	BJeLR viability	ugtP null kill	RN4220 kill
COc1ccc2nc(NC(=O)CNS(=O)(=O)c3cccs3)sc2c1	-23	1	7	6160	8	17	1.7
CC(C)C(OC(=O)c1ccco1)C(=O)NCc1cccs1 (stereo not given)	-12	-4	-5	9498	-9	-4	-0.5
COc1cc(OC)c(NC(=O)Cn2cnc3sc(C)c(S(=O)(=O)N4CCOCC4)c3c2=O)cc1Cl	1	-1	-3	3843	-5	1	-0.4

Results in PrP UTR inh and Autofluor counter, for some of the entries so far:
structure | PrP UTR inh | Autofluor counter
CCOC(=O)c1cc(S(=O)(=O)NC2CCC(C)CC2)cn1C (stereo not given) | -14 | 5488
Cc1ccc(C)c(N2CCN(C(=O)CCC(=O)Nc3nnc(CC(C)C)s3)CC2)c1 | -2 | 4752

Remaining list, next part
SMILES	PrP UTR inh	Mtb hypoxia rep	Mtb hypoxia rep growth	Autofluor counter	BJeLR viability	ugtP null kill	RN4220 kill
Cn1nc(C(=O)NC2CCCC2)c2ccccc2c1=O	-14	3	0	2737	.	2	1.8
O=C(NC(=S)NC1CCS(=O)(=O)C1)c1ccccc1 (stereo not given)	-43	4	-16	5892	-6	3	1.7
N#C/C(=C1\CCCN1)c1nc(-c2ccccc2)cs1	-8	3	-4	8012	-12	7	24
O=C(OC(C(=O)Nc1ccc(Cl)c(C(F)(F)F)c1)c1ccccc1)C1=COCCO1 (stereo not given)	-16	.	.	2447	-2	.	.
CCn1c(SCC(=O)NCC2CCCO2)nnc1-c1ccc(S(=O)(=O)N2CCN(C)CC2)cc1 (stereo not given)	-31	6	8	3957	-6	5	7.4
CN1C(=O)CC(C(=O)O)SC1=Nc1ccc(F)cc1 (stereo not given)	-12	11	7	7738	7	-9	6.9
CC(=O)Nc1sc(/C(C#N)=C/c2ccc(Cl)c(Cl)c2)nc1-c1ccc(C)cc1	-16	13	10	2505	-7	-16	-2.6
CN(C)Cc1nnnn1-c1ccccc1	-15	15	10	4478	-16	8	3.3
CCOC(=O)C(NC(C)=O)C(OC(C)=O)c1cccc(N(CCCl)CCCl)c1 (stereo not given)	9	4	-6	3383	-4	-4	9.5
COc1ccc(C2=NN(C(=O)c3cccc([N+](=O)[O-])c3)C(c3cccc([N+](=O)[O-])c3)C2)cc1 (stereo not given)	-18	-1	11	19134*	-4	-39	-1.4
CC(=O)Nc1ccc(-c2csc(NN=Cc3ccncc3)n2)cc1	.	16	4	.	.	-5	2.4
Cn1c(=O)[nH]c(=O)c2c1nc([N+](=O)[O-])n2Cc1ccccc1	-3	.	.	6627	0	55	13
O=C(O)c1cc(-c2ccc(/C=C3/SC(=S)N(Cc4ccccc4)C3=O)o2)ccc1Cl	-20	16	5	4996	.	101*	97*
Cc1nnc(SCC(=O)NCCN2C(=O)CSC2=O)n1-c1ccccc1	44	5	1	3453	1	4	3.2
C[C@H](CO)N1C[C@H](C)[C@@H](CN(C)C(=O)Nc2ccc(C(F)(F)F)cc2)Oc2c(NS(=O)(=O)c3ccc(F)cc3)cccc2C1=O	-9	-2	2	2887	.	1	3.6
COc1ccc2cc(CCNS(=O)(=O)c3ccc(NC(C)=O)cc3)c(=O)[nH]c2c1	-11	7	-1	3850	-2	16	1.9
O=C(COC(=O)/C=C/c1ccc(F)cc1)Nc1cccc(S(=O)(=O)N2CCCC2)c1	-15	7	0	5102	2	-3	3.5
Cc1ccc(NC(=O)COC(=O)CCOc2ccccc2C)cc1	-14	3	0	4648	5	14	7.6
CCCCN(CC)CCNC(=O)CNC(=O)Cn1ccc2ccccc2c1=O	-18	11	9	4853	-5	2	3.6
COc1ccc(NC(=O)CN(C)C(=O)CCCc2nc3ccccc3s2)cc1	-24	0	-1	5757	-3	7	2.1
CCCc1ccc(-c2cc(C(=O)NN3CCOCC3)c3ccccc3n2)cc1	-28	4	5	23255*	-2	-9	5.6
